gsp agonist: activates gsp, the McCune-Albright syndrome mutation. hit rate 0.13% among 340,000. AID 624287. Potency, µM (titrated, usually from 76.9 µM), inactives show at the highest dose activation (cAMP increase), usual class: activators. gsp mutant cells, cAMP HTRF, 30 min; control for the full effect not named in the record; active = well fitted activation curve with a large enough effect; inconclusive = small, poorly fitted or top-dose-only effect, or another doubt; inactive = no such curve, though single readings can be large or run the other way; cell line not stated here;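 note: phosphodiesterase inhibitor Ro 20-1724 added with compounds to block cAMP breakdown; potency is the fitted concentration of half-maximal effect; nearly all actives have a fitted effect of over 60% in size; about a fifth of the inactives were tested at one dose only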
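Cells in DMEM/10% FBS with G418 were pretreated with compounds in DMSO plus […] (300 uM stock) for 30 min at 37C. cAMP was measured by HTRF (cAMP-d2 plus anti-cAMP antibody-K) after 30 min at room temperature.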
TRPML1 agonist: activates the human TRPML1 channel; TRPML1-expressing cells, Ca2+ dye fluorescence, FDSS; host cell line not named in the record; reference of the full effect not given here; activation, % (no concentration beside the values); hit rate 0.12% among 410,000; in the data active = activation above about 50%; inconclusive = about 30% to 50%; inactive = below about 30%; note: 0% is about no effect; the text of the record puts the active cut at 80%
Target sequence (Q9GZU1 whole entry, looked up): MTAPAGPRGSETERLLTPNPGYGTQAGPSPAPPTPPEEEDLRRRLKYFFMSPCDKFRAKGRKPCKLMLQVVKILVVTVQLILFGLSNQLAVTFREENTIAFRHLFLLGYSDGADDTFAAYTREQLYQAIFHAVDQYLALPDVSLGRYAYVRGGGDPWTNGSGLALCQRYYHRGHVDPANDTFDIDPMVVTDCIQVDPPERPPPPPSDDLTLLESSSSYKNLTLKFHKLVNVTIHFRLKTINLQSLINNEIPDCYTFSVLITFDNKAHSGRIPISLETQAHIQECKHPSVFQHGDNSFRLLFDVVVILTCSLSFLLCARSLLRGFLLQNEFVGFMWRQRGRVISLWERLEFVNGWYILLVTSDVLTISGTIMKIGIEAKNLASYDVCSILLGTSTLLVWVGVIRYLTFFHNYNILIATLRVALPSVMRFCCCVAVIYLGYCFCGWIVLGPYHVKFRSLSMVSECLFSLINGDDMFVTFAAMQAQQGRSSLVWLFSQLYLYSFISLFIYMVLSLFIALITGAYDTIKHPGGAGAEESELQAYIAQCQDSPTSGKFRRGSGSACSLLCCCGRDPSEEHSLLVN
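Tetracycline-induced TRPML1-DL cells are seeded and incubated overnight before loading with a no-wash Ca2+ dye and quencher. Agonist activity is taken from the 110 s fluorescence read following compound pin-transfer on an FDSS, before EC80 54-4 challenge.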
ClpP mod: qHTS Assay for Activators of ClpP. Potency, µM (series often up to 57.5 µM), inactives show at the highest dose activity change, negative = active. purified B. subtilis ClpP, FRET peptide cleavage, 20 min. hit rate 1.9% among 340,000. ATP-dependent Clp protease proteolytic subunit (Bacillus subtilis (strain 168)), P80244; active = well fitted falling curve with a large enough effect; inconclusive = small, poorly fitted or top-dose-only effect; inactive = no such curve, though single readings can be large or run the other way; note: potency is the fitted concentration of half-maximal effect; the source files actives as falling curves though it sought activators and does not explain the sign; nearly all actives have a fitted effect of over 65% in size; many hits overshoot -100%
Target sequence (P80244 whole entry, looked up): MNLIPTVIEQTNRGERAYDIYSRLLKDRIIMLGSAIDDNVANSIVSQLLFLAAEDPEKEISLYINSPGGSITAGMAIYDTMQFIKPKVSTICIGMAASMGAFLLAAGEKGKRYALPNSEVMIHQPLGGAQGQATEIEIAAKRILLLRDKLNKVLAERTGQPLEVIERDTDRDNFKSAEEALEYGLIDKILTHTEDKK
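Buffer: 100 mM Tris/HCl pH8, 100 mM KCl, 0.05% low protease BSA, 2.5% glycerol, 0.01% Tween-20. ClpP 10 microg/mL final; 20 min RT; delta FRET normalized to ADEP and DMSO controls.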
Menin MLL FP FL: menin-MLL binding inhibition, fluorescein peptide. Fluorescence polarization, fluorescein-MLL peptide displacement from menin. FP activity change, % at 61.4 µM. 290,000 tested, under 10 active. AID 1766; inconclusive = falling polarisation curve, or a change in total fluorescence; inactive = total fluorescence flat and polarisation flat or rising; no compound was filed as active; the % refers to the polarisation; negative = inhibition;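 note: % of control where 0% means no effect; inhibitors lower the polarisation; unlabelled MLL peptide was the positive control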
gsp antag: antagonists of gsp mutant (McCune-Albright syndrome) | Potency, µM (top dose mostly 76.9 µM), for inactives: top-dose activity change, negative = inhibition, usual class: inhibitors | gsp-mutant cells, cAMP HTRF, 30 min; control for the full effect not named in the record | hit rate 0.4% among 340,000; active = falling curve of any shape with a large fitted effect; inconclusive = falling curve, mostly with a smaller effect; inactive = flat or rising curve; cell line not stated here;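 note: intracellular cAMP measured with PDE inhibitor Ro 20-1724 present during compound exposure; potency is the fitted concentration of half-maximal effect; % is set by controls: 0 for no effect and ±100 for the full control effect; nearly all actives have a fitted effect of over 65% in size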
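HTRF cAMP measurement after 30 min RT detection following 30 min, 37C compound treatment alongside […] (added as 300 uM solution) in G418-selected cells seeded at 2000/well and grown 16–24 h.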
TRPML1 blocker: blocks the human TRPML1 channel; Q9GZU1; TRPML1-inducible cells, Ca2+ dye fluorescence, FDSS; active compounds read low; inhibition of EC80 agonist-evoked calcium signal; activity change, negative = inhibition, % (test concentration not listed); hit rate 0.02% among 390,000; in the data active means activity change below about -50%; inconclusive means about -30% to -50%; inactive means above about -30%;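 note: stimulus is agonist 54-4 at its EC80 concentration; % is set by controls: 0 for no effect and ±100 for the full control effect; compound concentration not given in the record; the text of the record puts the active cut at -80%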
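TRPML1-DL cells, Tet-induced overnight (~16 h, 37 °C) at 1,500 cells/well, were loaded with Ca8 no-wash dye plus quencher for 45-90 min at room temperature. Compounds were pinned during FDSS kinetic reading; agonist 54-4 at EC80 (4 uM final) then added.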
Starred values were filed as active, the others as inactive; ? = inconclusive; nt = not tested or not shown; & = joins results of further samples; [ ] = another dose, or the depositor's remark. This is a random part of the collection, and some 2.1% of all compounds hit somewhere here.

SMILES | gsp agonist | TRPML1 agonist | ClpP mod | Menin MLL FP FL | gsp antag | TRPML1 blocker
O=C1CN(S(=O)(=O)c2ccc(F)cc2)CCN1 | -4% | -0.2 | nt | nt | 12% | 1
O=C(NCCc1cccs1)C1CC(c2cccc(F)c2)=NO1 (stereo unspecified) | nt | 1.0 | 4.6% | -1.9 | 1% | -3
CCCN(CCC)S(=O)(=O)c1cc(CN2C(=O)c3cccnc3C2=O)ccc1OC | ? | 1.8 | 2.0% | -0.2 | 22% | 17
COc1ccc(N(C(=O)c2cccnc2)S(=O)(=O)c2ccc(Cl)cc2)cc1 | -39%[inhibitor] | 1.2 | 2.8% | -2.3 | -12% | -11
CN(C)c1ccc(N2C(=NC(=O)c3ccccc3)SC3CS(=O)(=O)CC32)cc1 (stereo unspecified) | ? | -1.5 | -3.3% | nt | -20% | 12
COC(=O)c1c(C)oc(C)c1S(=O)(=O)NCc1ccc(OC)cc1 | -2% | -0.5 | -1.2% | 3.5 | 8% | 2
O=C(N/N=C/c1c[nH]c2ccccc12)c1ccc(Cl)cc1 | -57%[15.4 µM] | 0.2 | -1.7% | -1.2 | -6% | 5
COc1ccc(C(=O)Nc2cnc(NC(=O)c3cccs3)cc2C)cc1 | -34%[15.4 µM] | 1.1 | nt | 1.0 | -4% | 4
COc1ccc(CCn2c(C3CCCCC3)nc3c(c(=O)c4ccccc4n3C)c2=O)cc1 | -35%[inhibitor] | 9.1 | 0.0% | 6.3 | -12% | 31
Cc1ccc(C(=O)Oc2cccc(NC(=O)c3ccccc3)c2)cc1C | -27% | 0.4 | ? | -1.2 | -10% | -14
Cc1ccc(CSc2cn(CC(=O)N3CCCC3)c3ccccc23)cc1 | nt | 2.3 | -0.5% | nt | nt | 1
C=C(C)C1CCC(C)=C1CC(C)(C)/C=N\n1cnnc1 (stereo unspecified) | -42%[inhibitor] | 0.1 | 0.9% | 3.6 | -2% | -21
O=S1(=O)CCOCCCN1Cc1ccccc1Br | nt | -0.8&-0.4 | 1.1%&0.9% | 0.1 | 3% | 8
COc1cc(C(=O)Nc2nccs2)cc(OC)c1OC | 8% | -0.1 | 3.6% | 0.7 | 12% | 4
Nc1ccn(-c2ccccc2)c(=O)c1 | -38% | 0.3 | -1.1% | -0.5 | 9% | -3
CN(C)C(=O)c1ccc(NC(=O)CSc2nnc(-c3cccs3)n2N)cc1 | ? | 0.6 | -0.6% | nt | 13% | -7
Cc1nn(CC(=O)OCC(=O)Nc2c(C(C)C)cccc2C(C)C)c(C)c1[N+](=O)[O-] | -1%[15.4 µM] | -0.4 | 2.3% | 18 | -6% | -5
c1ccc(CCc2cccnc2)cc1 | 5%[15.4 µM] | 0.2 | -3.8% | nt | 3% | 4
COc1ccccc1/C=C1\Cc2ccccc2C1=O | -2% | 2.9 | -3.2% | -1.3 | -18% | -1
CC1CCC2(CC1)NC(=O)N(CC(=O)NCCc1c[nH]c3ccccc13)C2=O (stereo unspecified) | 6% | 2.5 | 0.0% | nt | 2% | -11
Cc1ccn2c(c1)nc(=O)c1cc(S(=O)(=O)N3CCC(C)CC3)ccc12 | ? | -0.6 | 3.7% | 12 | -1% | 9
COc1cc(S(=O)(=O)Nc2c(C)cc(C)cc2C)ccc1Cl | -36% | -0.4 | -5.2% | -2.8 | -25% | 10
CC(C)c1c(C(=O)N/N=C/c2ccccc2OCc2c(F)cccc2Cl)nnn1-c1nonc1N | 23% | 1.2 | -3.1% | -1.9 | ? | 19
CN(C)Cc1nc2c([nH]1)c(=O)n(C)c(=O)n2C | 15% | -0.5 | -1.0% | 4.7 | 0% | 2
Cc1ccc(C2=N/C(=C\c3cccs3)C(=O)N2Nc2ccccc2)cc1 | -25% | 0.2 | 0.2% | -6.2 | -4% | 15

Other structures.
SMILES | gsp agonist | TRPML1 agonist | ClpP mod | Menin MLL FP FL | gsp antag | TRPML1 blocker
O=C(NCCCNc1ccc(C(F)(F)F)cc1[N+](=O)[O-])c1ccc(Cl)cc1 | 1% | 1.0 | 0.6% | -1.1 | ? | 4
Cc1ccc(C)c(NC(=S)N2CCN(c3cccc(C(F)(F)F)c3)CC2)c1 | -9% | 0.7 | 0.0% | -0.9 | -2% | 14
CN(Cc1ccccc1)C(=O)c1c[nH]c2ccc(S(=O)(=O)N3CCOCC3)cc2c1=O | 11% | 0.0 | 32µM* | 6.1 | 12% | 7
O=C(NC1CCCC1)c1ccc(Br)s1 | 2% | 0.9 | -3.5% | 0.5 | 2% | -1
COc1ccc(/C=C/C(=O)N(C)C2(C)CCS(=O)(=O)C2)cc1 (stereo unspecified) | 24%[15.4 µM] | -0.7 | nt | nt | -4% | 0
Cc1ccc(NC(=O)Cn2cc3c(n2)CCCCC3)cc1 | nt | -0.7 | 0.5% | nt | nt | 17
CSc1ccc(CN(C)C(C)C(=O)Nc2ccc(F)c(F)c2F)cc1 (stereo unspecified) | 11% | 1.7 | -1.2% | 2.9 | -2% | 0
O=C(Cc1ccccc1F)NC1CCCc2ccccc21 (stereo unspecified) | -14% | 3.3 | nt | -1.2 | -8% | 36
COc1ccccc1-c1noc(COC(=O)c2ccc(Br)o2)n1 | 30% | 1.0 | 0.1% | nt | 9% | 5
CC(C)NC(=O)N(C)C[C@H]1Oc2ccc(NC(=O)Nc3ccc4c(c3)OCO4)cc2C(=O)N([C@H](C)CO)C[C@@H]1C | -16% | 0.1 | -0.2% | nt | 6% | -8
Cc1ccc(/C=C/C(=O)NCCCc2ccccc2)cc1 | ? | 6.1 | -4.1% | -0.9 | 3% | 42
Cn1c(C(=O)NCCN2CCN(Cc3ccccc3)CC2)cc2c(=O)n(C)c3ccccc3c21 | 0% | -0.2 | -14% | 0.5 | 8% | 4
CN(C)c1ccc(N=Cc2nc(-c3ccccc3)oc2OC(=O)c2cccc(Br)c2)cc1 | -41%[inhibitor] | 5.0 | -2.0% | ? | -1% | -5
O=C(Nc1ccc(Cl)cc1)N1CCCN(Cc2ccccc2F)C1 | -9% | 0.6 | 0.7% | 1.0 | 11% | -4
COc1ccc2c(c1OC)C(=O)OC2Nc1ccccn1 (stereo unspecified) | 9% | -0.5 | -4.7% | -1.4 | -1% | -4
Cn1c(=O)c2c(ncn2CC(=O)Nc2nnc(Cc3ccccc3)s2)n(C)c1=O | 7% | 0.7 | -1.7% | -2.0 | 4% | -6
CCn1cc(C(=O)OCc2ccc(F)cc2)c(=O)c2ccc(C)nc21 | ? | 1.4 | 1.5% | 1.9 | 9% | 5
CCCCOC(=O)/C(C#N)=C\c1ccc(-c2ccc(Cl)cc2)o1 | nt | -0.7 | 1.1% | nt | nt | 22
O[C@@H]1CN(Cc2ccccc2Cl)CC[C@H]1N1CCOCC1 | -25% | -0.1 | -2.2% | 2.7 | -4% | 0
Cc1cccc(NC(=S)N2CCN(S(=O)(=O)c3cccc(F)c3)CC2)c1 | -44%[15.4 µM] | -0.2 | nt | -7.7 | nt | -2
COc1ccccc1/C=C1\SC(=S)N(CCC(=O)NCCc2ccc(O)cc2)C1=O | 11% | 1.3 | nt | nt | -28% | -3
Cc1ccnc(NC(=O)CCCOc2cc(=O)n(C)c3ccccc23)c1 | 5% | -0.2&2.4 | -12%&-7.9% | 0.0 | 1% | 6&28
CC(C)(C)c1ccc(C(=O)Cn2cnnc2C#N)cc1 | -21%[15.4 µM] | -0.6 | nt | -0.1 | 8% | 5
COc1ccc2c(c1)C(=NNC(=O)c1ccccn1)c1cc(OC)ccc1-2 | -7%[15.4 µM] | 0.1 | nt | 1.8 | ? | 7
CC(=O)c1cccc(NC(=O)NCc2ccc3c(c2)OCO3)c1 | 11% | 1.1 | -2.2% | 1.6 | 4% | 4

(listing goes on)
SMILES | gsp agonist | TRPML1 agonist | ClpP mod | Menin MLL FP FL | gsp antag | TRPML1 blocker
CC(C)(C)Cc1nnc(NS(=O)(=O)c2ccccc2)s1 | -2%[15.4 µM] | -0.8 | -4.4% | 1.4 | -5% | -5
Cc1ccc([N+](=O)[O-])c(OCc2ncc(Cl)n2C)c1 | 6% | 0.3 | nt | -4.6 | 1% | -12
Cn1ccsc1=NC(=O)c1ccc(S(C)(=O)=O)c([N+](=O)[O-])c1 | 7% | -0.2 | -0.6% | nt | -22% | 8
C[C@]12CCC(=O)C=C1CC[C@@H]1[C@@H]2CC[C@@]2(C)[C@H]1CC[C@@]21CCC(=O)O1 | -17% | 0.1 | 1.8% | 0.0 | ? | 7
C=CCNC(=O)c1ccccc1NC(=O)c1ccc(Cl)c(S(=O)(=O)Nc2ccccc2)c1 | 20% | 2.5 | -1.4% | 3.3 | -11% | 28
CC(C)(C)c1ccc(-c2noc(-c3ccc4c(c3)CCO4)n2)cc1 | 38%[15.4 µM] | 1.3 | nt | -2.9 | 1% | -15
Cc1cc(C)c(C(N)=O)c(Nc2ccc(F)cc2)n1 | 9%[15.4 µM] | 0.2 | -1.0% | 0.6 | 1% | 7
CCN1CCN(C(c2ccc(F)cc2)c2nnnn2Cc2cccs2)CC1 (stereo unspecified) | -8% | 1.4 | 0.1% | -2.2 | 5% | -17
Nc1nnc(SCC(=O)OCC(=O)Nc2ccccc2F)s1 | -31%[inhibitor] | 0.0 | -0.3% | -3.1 | 3% | -1
CC1CCN(C(=O)CCc2ccc(S(=O)(=O)NC(C)C)cc2)CC1 | -9% | 0.5 | -0.4% | -1.8 | 2% | -2
CCOC(=O)CNC(=O)COc1coc(CN2CCN(Cc3ccccc3)CC2)cc1=O | 2% | 5.1 | 1.9% | nt | 6% | 18
Cc1nc(SCc2cccnc2)[nH]c(=O)c1C | 15% | -0.1 | 0.9% | -3.8 | 2% | 7
COCCn1c(SCC(=O)N2CCc3ccccc3C2)nc2ccccc2c1=O | 0% | 1.5 | -0.9% | 9.1 | -17% | 11
CCn1c(NCc2ccccc2NS(=O)(=O)c2ccc(C)cc2)nc2ccccc21 | 19% | 0.1 | 0.5% | 3.8 | -4% | -13
O=C(COC(=O)c1ccc[nH]c1=O)Nc1cc(S(=O)(=O)N2CCCCC2)ccc1Cl | -12%[15.4 µM] | -0.8 | nt | -2.2 | -3% | -12
O=C(CSc1nnc(SCc2ccc(Cl)cc2)s1)N/N=C/c1ccc(Cl)cc1Cl | 1% | 0.9 | -1.4% | 1.5 | 0% | 29
O=C(CSc1nnc(-c2ccc3c(c2)OCO3)o1)Nc1ncc(Cl)cc1Cl | -1% | 0.3 | -3.9% | 6.9 | 0% | 8
CCCN1CCC(=O)N(C(CSc2ccc(OC)cc2)CC(C)C)CC1 (stereo unspecified) | nt | 0.9 | nt | 0.4 | nt | 0
O=C(CN1C(=O)NC(Cc2ccccc2)C1=O)Nc1ccc(F)c(F)c1F (stereo unspecified) | -12% | 0.3 | -3.5% | nt | 1% | 7
